# 2A Renilla: Primary qHTS Assay for Foot and Mouth Disease Virus Antivirals against NCGC Sytravon and CBC Compound Libraries: Renilla Luciferase Signal; Potency, µM (top dose mostly 57.5 µM), for inactives: at the highest dose signal change, negative = less light; HEK cells with a luciferase reporter of 2A StopGo recoding; AID 1745857, 2022; hit rate 0.32% among 120,000; active means well fitted falling curve with a large enough effect; inconclusive means small, poorly fitted or top-dose-only effect; inactive means no such curve, though single readings can be large or run the other way; note: nearly all actives have a fitted effect of over 55% in size; overnight with compound
# 2A firefly: Primary qHTS Assay for Foot and Mouth Disease Virus Antivirals against NCGC Sytravon and CBC Compound Libraries: Firefly Luciferase Signal; Potency, µM (highest dose often 57.5 µM), inactives show at the highest dose signal change, negative = less light; HEK cells with a luciferase reporter of 2A StopGo recoding; hit rate 0.23% among 120,000; active = well fitted falling curve with a large enough effect; inconclusive = small, poorly fitted or top-dose-only effect; inactive = no such curve, though single readings can be large or run the other way; note: nearly all actives have a fitted effect of over 60% in size; overnight with compound
# An asterisk follows results filed as active; ? = inconclusive; [ ] = another dose, or the depositor's remark. % is set by controls: 0 for no effect and ±100 for the full control effect; potency is the fitted concentration of half-maximal effect.
SMILES,2A Renilla,2A firefly
Cc1ccc(Nc2nc(-c3ccccc3)c(C(=O)Nc3cccnc3)s2)cc1C,-5%,70%[activator]
Cc1ccc(S(=O)(=O)N2CCN(Cn3ncc4ccccc4c3=O)CC2)c(C)c1,-7%,8%
NCC(c1ccco1)N1CCCC1 (centres undefined),-7%,0%
CSc1ccccc1NC(=O)CCS(=O)(=O)c1nc(-c2cccs2)cc(C(F)(F)F)n1,-13%,-12%
Cc1cc(-c2csc(NC3CCCC3)n2)c(C)n1NC(=O)c1nn(C)c(=O)c2ccccc12,-16%,-8%
N#Cc1ccc(C(=O)Nc2ccc(Cl)cc2C(=O)c2ccccc2F)cc1,236%[activator],7%
COC(=O)c1cc(NC(=O)CSc2nnc(Cc3ccc(OC)cc3)n2C)ccc1Cl,5%,-10%
CCOC(=O)c1cc2c(=O)n3ccccc3nc2n(CCCOC)c1=NC(=O)c1c(-c2ccccc2Cl)noc1C,-8%,-22%
Cc1oc(-c2cccc(Cl)c2)nc1CN1CCCC(C(=O)NCc2ccc(F)cc2)C1 (centres undefined),5%,6%
CC(C)OC(=O)COc1ccc2c(-c3cc4ccccc4oc3=O)cc(=O)oc2c1,-5%,-10%
CCOc1ccc(C(C)NC(=O)Cc2nc(-c3cccs3)oc2C)cc1OCC (centres undefined),0%,-6%
CCOc1ccccc1NC(=O)CSc1nc(=O)[nH]c2c1CCCC2,-4%,-14%
Cc1ccc(-n2ncc3c(N4CCC(C)CC4)ncnc32)cc1C,-1%,0%
Cc1ccc(NC(NC(=O)c2ccco2)C(=O)c2ccccc2)cc1 (centres undefined),62%[activator],0%
Cc1cccc(NS(=O)(=O)c2ccc3c(c2)n(C)c(=O)n3C)c1C,193%[activator],15%
Cc1ccnc(NC(=O)Cc2ccc(Cl)cc2)c1,47%[activator],291%[activator]
COc1ccc(CCCc2nnc(SCC(=O)Nc3cc(F)ccc3C)o2)cc1,-2%,1%
O=C(c1ccc2c(c1)N(Cc1ccc(F)cc1)C(=O)c1ccccc1S2(=O)=O)N1CCCC1,124%[activator],4%
CC1(C)CC(=O)C2=C(C1)c1c(ccc3ccccc13)NC2c1ccco1 (centres undefined),86%[activator],120%[activator]
Cc1ccc(-n2nnnc2SCc2ncc(-c3ccccc3)o2)cc1,15%,33%[activator]
CC(C)CNc1nc(C(=O)Nc2nnc(C(C)C)s2)cs1,-4%,6%
CCc1nnsc1C(=O)N(C)Cc1cccc(Cl)c1,4%,-4%
CC(=O)c1cccc(N(C(=O)Cn2nnc3ccccc32)C(C(=O)NCc2ccccc2)c2ccc(F)cc2)c1 (centres undefined),-14%,12%
COC(=O)C(C)NC(=O)N1CCC2(CC1)NC(=O)c1ccccc1O2 (centres undefined),-3%,5%
COc1ccc(C)cc1-n1ccnc1SCC(=O)Nc1nc(C)cs1,?,-27%
# Additional records.
SMILES,2A Renilla,2A firefly
Cc1cc(N(C)Cc2ccccc2)n2nc(-c3ccc(C(C)(C)C)cc3)nc2n1,-10%,28%
CCOc1ccc(NC(=O)c2c(NCc3cc(OC)c(OC)cc3OC)sc3c2CCCC3)cc1,-11%,18%
O=c1[nH]c2ccc(-c3csc(NC4CCCC4)n3)cc2[nH]1,5%,79%[activator]
Cc1ccc(-n2nnc(C(=O)OCc3ccccc3)c2C)cc1C,36%[activator],147%[activator]
CNC(=O)COc1ccc(Nc2nnc(-c3ccc(C)c(S(=O)(=O)NC(C)(C)C)c3)c3ccccc23)cc1,-11%,34%[activator]
N#Cc1ccc(C(=O)N(CCc2ccccc2)Cc2cccs2)cc1,40%[activator],8%
O=C(CC12CC3CC(CC(Br)(C3)C1)C2)NCCc1ccccc1,4%,19%
CCOc1ccc(-c2ccc(CO)o2)cc1N,2%,118%[activator]
Nn1c(SCc2ncc(-c3ccc(Cl)cc3)o2)nnc1-c1ccc(F)cc1,9%,15%
Cc1ccc(Nc2nc(N3CCN(CCO)CC3)nc3c2cnn3-c2ccccc2)cc1,-3%,1%
CN(C(=O)Cn1nc(-c2ccc(Cl)cc2)ccc1=O)C1CCS(=O)(=O)C1 (centres undefined),-8%,-3%
CCOc1ccccc1C1C(C(=O)Nc2ccccc2)=C(C)Nc2nc(SCC(=O)c3ccc(C)cc3)nn21 (centres undefined),-9%,-9%
COC(=O)c1ccc(N2C(=O)Cc3cc(OC)c(OC)cc3C2c2ccc(OC)cc2)cc1 (centres undefined),27%,7%
Cc1cc(=O)[nH]c(SCC(=O)N2CCN(S(=O)(=O)c3ccccc3)C2)n1,15%,0%
Cc1ccc(NC(=O)Cn2c(-c3ccc4c(c3)OCO4)cn(-c3ccccc3)c2=O)cc1,118%[activator],150%[activator]
Cc1ccc(S(=O)(=O)N(C)[C@H]2C[C@H]3c4cc(N5CCOCC5)ccc4CCN3C[C@H]2[C@H](C)O)cc1,15%,-5%
Cn1c(=O)c2nc(SCC(=O)NCc3ccccc3Cl)n(C)c2n(C)c1=O,11%,19%
CCSc1ccccc1C(=O)NC(C)(C)C,5%,12%
COc1ccc(NC(=O)c2c(NCc3cccs3)sc3c2CCC(C)C3)c(OC)c1 (centres undefined),84%[activator],-6%
CCCCNc1nc2ccccc2nc1NS(=O)(=O)c1ccccc1,79%[activator],-8%
Cc1cc(C(=O)O)c2c(=O)n(C)c(=O)n(C)c2n1,4%,-5%
CCN(CC1COc2ccccc2O1)C(=O)CSc1nnnn1C1CCCC1 (centres undefined),18%,35%[activator]
CCOc1ccc2nc(NC(=O)c3nc(SC)ncc3Cl)sc2c1,-14%,-15%
Cc1c(C(=O)N2CCN(c3ccccc3O)CC2)oc2c1C(=O)CC(C)(C)C2,-15%,-1%
CN(Cc1ccc(F)cc1F)S(=O)(=O)c1cccc2nsnc12,57%[activator],6%

# Entries of single compounds, quoted from the list:
# Entry for CCCCNc1nc2ccccc2nc1NS(=O)(=O)c1ccccc1 = 2A Renilla = 79%[activator]; 2A firefly = -8%
# Entry for COC(=O)c1cc(NC(=O)CSc2nnc(Cc3ccc(OC)cc3)n2C)ccc1Cl = 2A Renilla = 5%; 2A firefly = -10%

# Later entries:
SMILES,2A Renilla,2A firefly
COc1ccc(-c2cc(C(=O)Nc3cc(C)ccc3O)no2)cc1OC,4%,-1%
CC(Sc1ccc(F)c(Cl)c1)C(=O)NC(C)(C)C (centres undefined),9%,0%
COc1cc(-c2cc(N3C(=O)Nc4ccccc4N3O)n[nH]2)cc(OC)c1OC,11%,24%
CN(C)CCN(Cc1ccccc1)c1ccccn1,-7%,0%[11.5 µM]
CCc1ccccc1NC(=O)C(=O)c1c(C)[nH]c2ccccc12,7%,9%
CCC(=O)N1CCc2cc(Br)cc(S(=O)(=O)N3CCCC(C(=O)Nc4ccc(OC)cc4OC)C3)c21 (centres undefined),8%,-17%
Cc1cc(NC(=O)c2nccnc2N)ccc1Br,6%,0%
CCOc1ccc(C(=O)Nc2ccc(-c3cc4ccccc4oc3=O)cc2)cc1Br,-8%,-11%
COC(=O)CC1C(=O)NCCN1S(=O)(=O)c1ccc(F)cc1 (centres undefined),7%,13%
COc1ccc(NC(=O)Nc2ccc(-c3nnc(-c4ccccc4)o3)cc2)cc1F,7%,127%[activator]
O=C(O)CCC(=O)N1N=C(c2ccc(Cl)cc2)CC1c1ccc2nccnc2c1 (centres undefined),-10%,32%[activator]
Nc1c(C(=O)Nc2ccccc2Cl)nnn1Cc1cccc(Cl)c1,166%[activator],19%
CCOCCOC(=O)C(C)Oc1ccc2c(=O)c(Oc3cc(C)cc(C)c3)c(C(F)(F)F)oc2c1 (centres undefined),16%,0%
CC(C)CCC(=O)N1CCN(Cc2ccco2)CC1,4%,29%
COc1ccc(NC(=O)C(=O)NCCN(C)C)cc1N1CCCCS1(=O)=O,3%,12%
COc1ccc(/C=C(/NC(=O)c2ccco2)C(N)=O)cc1,2%,8%
CCCCCCCCNS(=O)(=O)/C=C/c1cc(C)ccc1CNC(=O)OC(C)(C)C,0%,-4%
CCOCCn1c(SCc2ccc(Cl)cc2)nc2c1c(=O)[nH]c(=O)n2C,-12%,-6%
CCCN1CCN(c2nnc(-n3cccc3C(=O)Nc3ccccc3C(F)(F)F)s2)CC1,-11%,-5%
CN(Cc1ccc(F)cc1)S(=O)(=O)c1cccc2nsnc12,29%,5%
Cc1oc(-c2ccc(C(=O)NC3CCCC3)cc2)nc1CS(=O)c1ccccc1 (centres undefined),2%,1%
Cc1cccc2c1-c1sc(C(=O)Nc3ccc(F)cc3F)cc1CO2,-8%,59%[activator]
Cc1nn(-c2ccc(F)cc2)c(-n2cccc2)c1C(=O)N1CCN(c2ccccc2)CC1,1%,7%
CCOC(=O)c1sc(-c2cc(OC)c(OC)c(OC)c2)cc1NC(=O)c1cnccn1,6%,2%
O=C(NCC(c1cccs1)S(=O)(=O)c1cccs1)c1ccc(F)c(F)c1 (centres undefined),70%[activator],-11%
# Continuation.
SMILES,2A Renilla,2A firefly
Cc1ccc([N+](=O)[O-])c(C)c1N,17%,25%
O=C(O)c1ccc(COc2ccccc2/C=N/O)cc1,-3%,23%
CCc1ccccc1NC(=O)CSc1nccn1C,-3%,6%
CCOC(=O)C1CCN(S(=O)(=O)c2ccc3c(c2)NC(=O)C(C)C(=O)N3)CC1 (centres undefined),-15%,-13%
O=C(COC(=O)c1cc(-c2cccs2)nc2ccccc12)NCC(F)(F)F,-9%,7%
COc1ccc(-c2cc(C(=O)NC3CC3)c3ccccc3n2)c(OC)c1,20%,19%
O=C(Nc1ccc(OCc2ccccc2)cc1)c1cccc2ccccc12,7%,0%
COc1ccc(OC)c(NC(=O)C2CCCN(S(=O)(=O)c3ccc4[nH]c(=O)ccc4c3)C2)c1 (centres undefined),-4%,-11%
COc1ccc(Cl)cc1NC(=O)COc1ccccc1O,42%[activator],28%
Cc1c(Cl)cccc1NC(=O)c1ncn(-c2ccccc2)n1,-1%,0%
O=C(N/N=C/c1cccc(F)c1)C1CC1,9%,98%[activator]
Nc1nccnc1C(=O)NCc1ccnc(OCc2ccccc2)c1,10µM*,22µM*
O=S(=O)(c1ccc2oc(Nc3cccc(F)c3)nc2c1)N1CCCCC1,23%,68%[activator]
CCc1ccc(NC(=O)c2cnn(-c3c(C)cccc3C)c2C2CCNCC2)cc1,-14%,-20%
O=C(CN1C(=O)CC(c2ccccc2)Sc2ccccc21)Nc1cccc(Cl)c1 (centres undefined),6%,13%
Cc1cccc(C)c1NS(=O)(=O)c1cc(-c2ccno2)oc1C,70%[activator],-5%
O=C(O/N=C1\CCCc2oc3c(c21)CCCC3)c1ccc(Cl)cc1,15%,21%
O=C1NCCN1CCN1CCC(c2cn(-c3ccc(F)cc3)c3ccc(Cl)cc23)CC1,?,?
Cc1nc(-c2ccc(S(=O)(=O)Nc3ccc(C(C)C)cc3)cc2)co1,43%[activator],56%[activator]
Cc1ccc(-c2c(NC(=O)c3cccc([N+](=O)[O-])c3)oc3ccccc3c2=O)cc1,-1%,30%[activator]
CC(=O)Nc1cc(-c2ccc(=O)n(C(C)C(=O)Nc3c(C)cc(C)cc3C)n2)ccc1C (centres undefined),-1%,-5%
Cc1ccc(-n2nc(C(=O)N3CCCCC3)c(=O)n(C)c2=O)cc1,-5%,18%
Cc1cc(C(=O)NCCCOC(C)C)c2ccccc2n1,-13%,-9%
COC(=O)c1ccc(C2C(C#N)=C(N)OC3=C2C(=O)CC(C)(C)C3)cc1 (centres undefined),17%,-3%
CC(=O)c1ccc(OCc2ccccc2)cc1C,0%,0%

# Sorted by SMILES length (lowest first): five of the compounds above.
SMILES,2A Renilla,2A firefly
Cc1ccc(-n2nc(C(=O)N3CCCCC3)c(=O)n(C)c2=O)cc1,-5%,18%
CCc1ccc(NC(=O)c2cnn(-c3c(C)cccc3C)c2C2CCNCC2)cc1,-14%,-20%
CCOC(=O)C1CCN(S(=O)(=O)c2ccc3c(c2)NC(=O)C(C)C(=O)N3)CC1 (centres undefined),-15%,-13%
Cc1ccc(-c2c(NC(=O)c3cccc([N+](=O)[O-])c3)oc3ccccc3c2=O)cc1,-1%,30%[activator]
COc1ccc(OC)c(NC(=O)C2CCCN(S(=O)(=O)c3ccc4[nH]c(=O)ccc4c3)C2)c1 (centres undefined),-4%,-11%

# Later entries:
SMILES,2A Renilla,2A firefly
O=C(OCC(=O)c1ccc(Cl)cc1Cl)c1ccc2ccccc2n1,-9%,14%
Cc1ccc(-c2nnc(CN3CCC(c4ccn[nH]4)CC3)o2)cc1,-7%,-2%
CCC(=O)NC(C)c1ccc(OC)cc1 (centres undefined),6%,9%
Cc1cc(NC(=O)Nc2nnc(N3CCCCCC3)s2)ccc1Br,-3%,-9%
CCOc1ccc(CCNC(=O)c2cc3c(=O)[nH]c4ccc(C)cc4c3s2)cc1OCC,-2%,-16%
COc1cccc(N2CCN(C(=O)C3CCN(S(=O)(=O)c4cccc5nonc45)CC3)CC2)c1,-21%,-22%
CCOc1ccc(CN2CCC(N3CCOCC3)CC2)cc1,4%,0%
Cc1c(C(=O)Nc2ccc(F)c(F)c2)oc2ccc(S(=O)(=O)N3CCC4(CC3)OCCO4)cc12,3%,-3%
CCOc1ccc(CNC(=O)CCC(=O)N2CCSc3ccccc32)cc1,7%,-17%
Cc1cccc(N2CCN(C(=O)C3CCCN(S(=O)(=O)c4ccc5c(c4)oc(=O)n5C)C3)CC2)c1C (centres undefined),-31%,?
O=C(NC(O)C(=O)c1ccccc1)c1ccccc1 (centres undefined),19%,162%[activator]
O=C(Nc1ccc(F)cc1)c1cc(-c2ccccn2)nc2ccccc12,4%,3%

# Compound activity as filed in PubChem.

# Some of the compounds tested. The share of hits here may be higher or lower than overall.
